# Compound activity: PubChem, National Center for Advancing Translational Sciences (NCATS)
# HPGD inh: qHTS Assay for Inhibitors of HPGD (15-Hydroxyprostaglandin Dehydrogenase); 15-hydroxyprostaglandin dehydrogenase [NAD(+)] (Homo sapiens), P15428; purified HPGD, NADH fluorescence kinetic, PGE2 substrate; Potency, µM, for the others: top-dose activity change, negative = inhibition, actives largely listed as inhibitors; 4.3% of 150,000 active; AID 894, 2007; active = well fitted inhibition curve with a large enough effect (not every such curve was filed as active); inconclusive = small, poorly fitted or top-dose-only effect, or another doubt; inactive = no such curve, though single readings can be large or run the other way;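 also: top concentration of the series not given in the record; plate controls included wells without enzyme; inactives centre near -10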
# Target sequence (P15428 whole entry, looked up): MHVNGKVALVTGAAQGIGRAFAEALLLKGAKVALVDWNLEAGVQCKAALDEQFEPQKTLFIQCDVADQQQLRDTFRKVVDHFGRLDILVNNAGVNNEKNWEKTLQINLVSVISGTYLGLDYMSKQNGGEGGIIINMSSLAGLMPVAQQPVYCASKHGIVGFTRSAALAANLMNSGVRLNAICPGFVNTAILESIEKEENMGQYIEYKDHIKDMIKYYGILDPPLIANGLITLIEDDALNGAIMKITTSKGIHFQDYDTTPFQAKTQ
#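 NADH formation kinetics: reaction with 30 uM PGE2 and 1 mM NAD+ (final), 20 nM enzyme, Tris-HCl pH 8 with Tween 20, after 15 min compound preincubation at room temperature. Fluorescence change, last versus first of five reads.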
# Starred values were filed as active, the others as inactive; ? = inconclusive; & = joins results of further samples. % is scaled to controls: 0 for no effect and ±100 for the full control effect; potency is read from the fitted curve at half-maximal effect. Not all compounds are listed; rates above refer to the full screens.
SMILES,HPGD inh
O=C(O)c1cc(N/N=C2/CC(c3ccccc3)Oc3ccccc32)ccc1Cl (stereo unspecified),-12%
O=C(CSc1nnc(-c2cccnc2)n1Cc1ccco1)NCc1ccc2c(c1)OCO2,0%
O=C(Cn1nnc2ccccc21)OCC(=O)c1ccc(Cl)c(Cl)c1,-12%
CC1(C)Cc2cccc(OCC(=O)N3CCN(S(=O)(=O)c4ccc(F)cc4)CC3)c2O1,-10%
COc1ccc([N+](=O)[O-])cc1NC(=O)CCc1ccccc1,-24%
CCN(CC(O)CON=C1c2ccccc2-c2ccccc21)S(=O)(=O)c1ccc(C)cc1 (stereo unspecified),-17%
O=C(Nc1cc(C(F)(F)F)ccc1-n1cnc2ccccc21)c1ccccc1,-15%
COc1cccc(-c2[nH]nc3c2C(c2ccc(C)o2)C(C#N)=C(N)O3)c1 (stereo unspecified),?
CC(=O)Nc1ccc(OC(=O)c2cc3ccccc3oc2=O)cc1,-8%
CC1(C)CC(=O)c2c(nc(SCC(=O)Nc3nsc(-c4ccccc4)n3)c(C#N)c2-c2ccccc2)C1,-28%
CCc1nc(N2CCCC2C(=O)O)c2oc3ccccc3c2n1 (stereo unspecified),?
C/C(=N\N=C(/N)SC1CC(=O)N(c2cccc(Cl)c2)C1=O)c1cccs1 (stereo unspecified),-20%
Cc1ccc2nc(/C(C#N)=C\c3ccc(Oc4ccc(C(F)(F)F)cc4[N+](=O)[O-])cc3)[nH]c2c1,-11%
CSc1nc(Oc2ccc(F)cc2F)cc(C(F)(F)F)n1,-11%
COc1ccccc1NC(=O)N(Cc1ccco1)Cc1cc2cccc(C)c2[nH]c1=O,-12%
Cc1ccc(NC(=O)C2C(=O)N(CCO)C3(C)CC2c2ccccc2O3)cc1 (stereo unspecified),-8%
Nc1nnc(SCCOc2ccc(Br)cc2)s1,-15%
c1ccc(-n2ncc3c(NCc4ccccn4)ncnc32)cc1,?
CCOc1ccc(-c2nnc(-c3ccccc3)n2-c2ccccc2)cc1,?
CCN(CC)c1ccc(-c2c(C#N)c(N)nc(OC)c2C#N)cc1,?
Brc1cccc(-c2nnc3n2CCC3)c1,-12%
CC(=O)c1ccc(NC(=O)c2cnn3ccccc23)cc1,?
O=C(Cc1ccccc1)N1CCC(O)(c2cccnc2)CC1,0%
COc1cc(C)c(NC(=S)Nc2cccc(Cl)c2)cc1OC,-5%
CC(=O)N1CCN(Cc2nc3cc(NC(=O)Cn4nc(C)c5ccccc5c4=O)ccc3n2C)CC1,-6%
Cc1ccc(C(=O)C(C)OC(=O)C2CC(=O)N(C3CCCCC3)C2)cc1 (stereo unspecified),-15%
COc1ccccc1NC(=O)c1ccc(NC(=O)CSc2ncn[nH]2)cc1,-19%
N=c1c2c(ncn1Cc1ccco1)Oc1ccc3ccccc3c1C2c1ccccc1 (stereo unspecified),-19%
Clc1ccc(CSc2snnc2-c2ccccc2)c(Cl)c1,?
CCCOc1ccc(C(=O)c2nc3c(n2O)CCCC3)cc1,-11%
COC(=O)[C@@]1(Cc2ccccc2-c2ccco2)C=C[C@H](C)[C@@H](c2ccccc2)N1C(=O)C(F)(F)F,-19%
CC(=O)c1cccc(NC(=S)NC2CC2)c1,-9%
O=C(NCc1ccccc1)c1cncc(Br)c1,-13%
O=c1c2c(nc3c(-c4ccc(Cl)cc4)c[nH]n13)CCCC2,?
CCC1=NN(C(=O)CCc2ccccc2)C(O)(C(F)(F)F)C1 (stereo unspecified),-29%
Cc1occc1-c1nnc(SCC(=O)N2CCOCC2)n1CCc1ccccc1,2%
CCCCC/C=C\C/C=C\CCCCCCCCCC(=O)NC(C)C(=O)O (stereo unspecified),-5%
CN(C)S(=O)(=O)c1ccc(Cl)c(NC(=O)COC(=O)CCSc2ccccc2)c1,-1%
O=C(CN1CCc2ccccc21)NC(=O)NCc1ccco1,-6%
Cc1cccc(-n2c(SCC(=O)NCc3ccco3)nnc2-c2ccco2)c1,-8%
CC1=NCC[N@@+]1(CCc1ccccc1)Cc1ccccc1,-5%
O=C(NCCc1ccccc1)/C(=N\O)c1ccccc1,-12%
CCn1c(=O)cc(SCC(=O)NCc2ccc(C)o2)c2ccccc21,28µM*
CC(=O)Nc1ccccc1Sc1ccccc1,-7%
CCC(C(=O)NC1CCCC1)N(C(=O)Cn1nnc(-c2ccc(C)o2)n1)c1cnc2ccccc2c1 (stereo unspecified),-5%
Cc1ccc(NCc2nc3ccccc3n2C)cc1,-18%
COc1cc(/C=C(\C#N)C(=O)Nc2cccc3ncccc23)cc(OC)c1OC,-7%
CC(=O)c1ccc(N(C(=O)Cn2nnc(-c3ccccc3)n2)C(C(=O)NC2CCCCC2)c2ccccn2)cc1 (stereo unspecified),-3%
COC(=O)c1ccc(NS(=O)(=O)N(C)C)cc1,?
CCOc1cc(NC(=S)NCC2CCCO2)c(OCC)cc1NC(=O)c1ccc(OC)cc1 (stereo unspecified),-9%

# 3 compounds from above, sorted by heavy-atom count, lowest first.
SMILES,HPGD inh
Cc1ccc(NCc2nc3ccccc3n2C)cc1,-18%
O=C(NCCc1ccccc1)/C(=N\O)c1ccccc1,-12%
CCC(C(=O)NC1CCCC1)N(C(=O)Cn1nnc(-c2ccc(C)o2)n1)c1cnc2ccccc2c1 (stereo unspecified),-5%

# (further entries)
SMILES,HPGD inh
CCC1(C)Cc2c(sc3nnn(CC(=O)Nc4ccccc4)c(=O)c23)CO1 (stereo unspecified),-11%
CCCC[C@@H]1C[C@H]1C(NC(=O)c1cccs1)c1ccccc1C(F)(F)F (stereo partly specified),?
Clc1ccc2nc(SCc3nnc(-c4ccccc4)o3)[nH]c2c1,18µM*
CCc1ccc(Nc2ncc3c(n2)CC(c2ccc(OC)cc2)CC3=O)cc1 (stereo unspecified),-23%
O=S1(=O)CCN(Cc2ccc(Cl)cc2)CC1,-6%
COc1ccc(C(=O)NC(=S)Nc2ccccc2F)cc1,1%
COc1ccccc1-c1nnc(N(C)C(=O)C2CCCO2)s1 (stereo unspecified),-23%
COc1cc(/C=C/C(=O)N2CCCc3ccccc32)cc(OC)c1OC,-10%
CCCOC(=O)C1=C(C)NC2=C(C(=O)CCC2)C1c1cc(OC)ccc1OC (stereo unspecified),-3%
COc1ccc2nc3c(c([Si](C)(C)C(C)(C)C)c2c1)Cn1c-3cccc1=O,?
CC12CN3CC(C)(CN(C1)C3c1cc3ccccc3[nH]1)C2=O (stereo unspecified),-8%
O=C(COC(=O)C1CCC1)NCc1ccccc1Cl,8.9µM*
O=C(c1ccccc1[N+](=O)[O-])N1CCN(Cc2ccc3c(c2)OCO3)CC1,-4%
O=C(COc1ccc(Cl)cc1Cl)Nc1ccc2nc3n(c(=O)c2c1)CCCC3,10µM*
OCCNCCOc1ccc(Cl)c(Cl)c1,-9%
S=C(S)O[C@@H]1C[C@@H]2C[C@H]1[C@@H]1CCC[C@H]21,-26%
CCN(CC)c1ccc(/C=N/NC(=O)c2c(Cl)cnn2C)c(O)c1,-26%
Cc1ccsc1/C=N/NC(=O)c1c[nH]c2ccccc12,-6%
CCCNC(=O)CN(C)S(=O)(=O)c1c(C)cc(C)cc1C,2%
Cc1cccc(C(=O)NCC(=O)OCC(=O)N2CC3(C)CC2CC(C)(C)C3)c1 (stereo unspecified),-6%

# 4 compounds picked at random from the list so far, as already listed:
SMILES,HPGD inh
Cc1ccsc1/C=N/NC(=O)c1c[nH]c2ccccc12,-6%
CCCNC(=O)CN(C)S(=O)(=O)c1c(C)cc(C)cc1C,2%
O=C(COC(=O)C1CCC1)NCc1ccccc1Cl,8.9µM*
OCCNCCOc1ccc(Cl)c(Cl)c1,-9%

# (continued)
SMILES,HPGD inh
COc1ccc(CN2CC(C(=O)NCCN3CCN(c4ccccc4F)CC3)CC2=O)cc1 (stereo unspecified),-8%
COc1ccc(OC)c(C2CC(c3c(-c4ccccc4)c4cc(Cl)ccc4[nH]c3=O)=NN2S(C)(=O)=O)c1 (stereo unspecified),-15%
O=C(c1ccc(Cl)cc1)c1c[nH]c(C(=O)C(Cl)(Cl)Cl)c1,?
CC1Cc2ccccc2N1CC(=O)Nc1ccc2c(c1)OCO2 (stereo unspecified),-5%
Cc1ccc(-n2c([O-])nc(-[n+]3ccccc3)c2C=O)cc1,-15%
CCOC(=O)CCCNC(=O)CCCNC(=O)C(c1ccccc1)c1ccccc1,0%
O=C(O)[C@@H]1[C@@H]2O[C@H]([C@@H](Br)[C@H]2Br)[C@H]1C(=O)O,-16%
CCC1CCCN1Cn1cnc2c([nH]c3ccc(Cl)cc32)c1=O (stereo unspecified),-23%
C=CCC1CCCC(=O)N2CC[C@H](O)C12 (stereo partly specified),-6%&-8%
CCOC(=O)c1nc(-c2ccc(OC)c(OC)c2)cnc1C#N,?
COC(=O)CN1C(=S)N(c2ccc(Cl)cc2)C(=O)C1CC(=O)Nc1ccccc1 (stereo unspecified),-6%
Cc1cc(C)cc(NC(=O)Cn2c(-c3ccccc3Cl)nc3ccccc32)c1,-9%
Cc1ccc(CSC2=CS(=O)(=O)c3ccccc3N2)cc1,-11%
CCOc1cc2c(cc1OCC)C(C(=O)O)C(c1cc(Br)c(O)c(OC)c1)N(C)C2=O (stereo unspecified),-7%
Cn1nc(N)c2c(-c3ccc(Cl)cc3)c(C#N)c(N)nc21,2%
C[C@@]1(C(=O)O)CCC[C@@H]1C(=O)O,0%
CCOC(=O)C1=C(CN2CCOCC2)NC(=O)NC1c1cc(C)ccc1C (stereo unspecified),-1%
Cc1nc2ccccc2n1CSc1ccccc1,-15%
N=c1sccn1CC(=O)Nc1ccccc1Cc1ccccc1,-18%
Cc1ccc(S(=O)(=O)N(Cc2cc3cc4c(cc3[nH]c2=O)OCCO4)CC2CCCO2)cc1 (stereo unspecified),?
CCCn1nc(NC(=O)c2cccs2)c2cc3ccccc3nc21,?
COc1cc(CNC2CCCC2)cc(Cl)c1OCc1ccccc1Cl,-3%
Cc1ccc(-c2ccc(/C=N/c3ncn[nH]3)o2)cc1Cl,-32%
Cc1ccc(N)c(C(O)(C(F)(F)F)C(F)(F)F)c1,-8%
Cc1nc2ccccc2c2c1C(=O)N(C)C2=O,-15%
CC(C)CC(c1nnnn1CCc1ccccc1)N1CCN(C(=O)c2ccco2)CC1 (stereo unspecified),-4%
COc1ccccc1N1CCN(C(=O)C2c3ccccc3Oc3ccccc32)CC1,-19%
CC1(c2ccc3noc(-c4ccc(Cl)cc4)c3c2)OCCO1,-23%
Cc1cc2ccc(C)c(C)c2nc1SCC#N,-1%
O=C(c1c(Cl)cccc1Cl)N1CCN(c2ccccn2)CC1,-4%
Cc1ccc(S(=O)(=O)/N=C/N(C)C)cc1,-7%
OCC1CCCN(Cc2ccc(-c3ccccc3)cc2)C1 (stereo unspecified),-8%
O=C(CN1C(=O)NC2(CCCc3ccccc32)C1=O)N1CCN(C(=O)c2ccco2)CC1 (stereo unspecified),-2%
COc1ccc(/C=N\NC(=O)COc2ccccc2Cl)cc1Cn1nc(C)cc1C,-10%
COc1cc(NC(=O)COC(=O)CNC(=O)c2ccc(C)cc2)c(C)cc1[N+](=O)[O-],-18%
CNc1nc(C(=O)O)nc(N2CCOCC2)n1,9%
CC(=O)c1ccc(OCc2cc(=O)n3ccsc3n2)cc1,?
Cc1ccc(S(=O)(=O)N2CCN(CC(=O)Nc3ccc4c(c3)CCC4)CC2)cc1C,-2%
COc1ccccc1-c1cc(C(=O)NCc2ccc(Cl)cc2)no1,?
CCC(NC(=O)OC(C)(C)C)C(=O)Oc1ccc2c3c(c(=O)oc2c1)CCC3 (stereo unspecified),3%
COc1ccc(Cc2nnc3c4cnn(C)c4ncn23)cc1,-8%
COc1ccc([C@H]2[C@H](C(=O)OC(C)(C)C)N3N=Cc4ccccc4C3C23C(=O)c2ccccc2C3=O)cc1OC (stereo partly specified),-8%
O=C(Cc1ccc(Br)cc1)OCC(=O)c1ccc2c(c1)OCCO2,-12%
CCC(=O)Oc1ccc(C(=O)Nc2ccc3c(c2)C(=O)N(C2CCCCC2)C3=O)cc1,-22%
O=C1CCCN1c1cc(Cl)ccc1Cl,-14%
OCCn1cnc2c(SCc3ccccc3)ncnc21,-4%
O=C(CCc1ccc(S(=O)(=O)NC2CCCCC2)cc1)NCc1ccc(Cl)cc1,-5%
CCN(CC)C(=O)c1ccc2c(c1)N(Cc1ccccc1)C(=O)CS2=O (stereo unspecified),-10%
O=C(OCCCN=C1NS(=O)(=O)c2ccccc21)c1ccc(F)cc1,2%
Cc1ncc([N+](=O)[O-])n1CC(=O)NCc1ccccc1,-13%
# (further entries)
SMILES,HPGD inh
CN(CC(=O)N1CCc2ccccc2C1)S(=O)(=O)c1ccc2c(c1)c(=O)n(C)c(=O)n2C,-13%
COc1ccc(OC)c(N2C(=O)C(Cl)=C(N3CCOCC3)C2=O)c1,-9%
Cc1cc(NC(=O)CCC(=O)N(CC(=O)NC2CCCC2)Cc2ccco2)no1,1%
O=C(OCN1C(=O)c2ccccc2C1=O)c1ccccc1,-16%
O=C(Nc1cccc(F)c1)C1CCCN1S(=O)(=O)c1cccc2cccnc12 (stereo unspecified),1%
CCc1ccc(C(=O)Nc2ccc(S(=O)(=O)Nc3nc(C)cc(C)n3)cc2)o1,-15%

# Some of these compounds in order of their number in HPGD inh, high to low:
canonical_smiles | HPGD inh
Cc1cc(NC(=O)CCC(=O)N(CC(=O)NC2CCCC2)Cc2ccco2)no1 | 1%
CN(CC(=O)N1CCc2ccccc2C1)S(=O)(=O)c1ccc2c(c1)c(=O)n(C)c(=O)n2C | -13%
CCc1ccc(C(=O)Nc2ccc(S(=O)(=O)Nc3nc(C)cc(C)n3)cc2)o1 | -15%
O=C(OCN1C(=O)c2ccccc2C1=O)c1ccccc1 | -16%
